Menin MLL FP FL – inhibitors of human menin-MLL interaction, wild-type MLL peptide; Fluorescence polarization, fluorescein-MLL peptide displacement from menin; FP activity change, % at 61.4 µM; 290,000 tested, under 10 active; inconclusive = falling polarisation curve, or a change in total fluorescence; inactive = total fluorescence flat and polarisation flat or rising; no compound was filed as active; the % refers to the polarisation; negative = inhibition;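 further: % of control where 0% means no effect; inhibitors lower the polarisation; unlabelled MLL peptide was the positive control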
gsp ag – gsp mutant agonism; actives 0.13% (n = 340,000); AID 624287; gsp mutant cells, cAMP HTRF, 30 min; control for the full effect not named in the record; Potency, µM (highest dose often 76.9 µM), for inactives: top-dose activation (cAMP increase), hits mostly activators; active = well fitted activation curve with a large enough effect; inconclusive = small, poorly fitted or top-dose-only effect, or another doubt; inactive = no such curve, though single readings can be large or run the other way; cell line not stated here;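 further: phosphodiesterase inhibitor Ro 20-1724 added with compounds to block cAMP breakdown; potency means the concentration at half of the fitted maximal effect; nearly all actives have a fitted effect of over 60% in size; about a fifth of the inactives were tested at one dose only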
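Cells in DMEM/10% FBS with G418 were pretreated with compounds in DMSO plus […] (300 uM stock) for 30 min at 37C. cAMP was measured by HTRF (cAMP-d2 plus anti-cAMP antibody-K) after 30 min at room temperature.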
TRPML1 inh – blocks the human TRPML1 channel. Q9GZU1. TRPML1-inducible cells, Ca2+ dye fluorescence, FDSS; hits give low values; inhibition of EC80 agonist-evoked calcium signal. activity change, negative = inhibition, % (no concentration beside the values). actives 0.02% (n = 390,000). AID 624415; in the data active means activity change below about -50%; inconclusive means about -30% to -50%; inactive means above about -30%;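 further: stimulus is agonist 54-4 at its EC80 concentration; on the % scale 0 is the no-effect control and ±100 the full control effect; compound concentration not given in the record; the text of the record puts the active cut at -80%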
Target sequence (Q9GZU1 whole entry, looked up): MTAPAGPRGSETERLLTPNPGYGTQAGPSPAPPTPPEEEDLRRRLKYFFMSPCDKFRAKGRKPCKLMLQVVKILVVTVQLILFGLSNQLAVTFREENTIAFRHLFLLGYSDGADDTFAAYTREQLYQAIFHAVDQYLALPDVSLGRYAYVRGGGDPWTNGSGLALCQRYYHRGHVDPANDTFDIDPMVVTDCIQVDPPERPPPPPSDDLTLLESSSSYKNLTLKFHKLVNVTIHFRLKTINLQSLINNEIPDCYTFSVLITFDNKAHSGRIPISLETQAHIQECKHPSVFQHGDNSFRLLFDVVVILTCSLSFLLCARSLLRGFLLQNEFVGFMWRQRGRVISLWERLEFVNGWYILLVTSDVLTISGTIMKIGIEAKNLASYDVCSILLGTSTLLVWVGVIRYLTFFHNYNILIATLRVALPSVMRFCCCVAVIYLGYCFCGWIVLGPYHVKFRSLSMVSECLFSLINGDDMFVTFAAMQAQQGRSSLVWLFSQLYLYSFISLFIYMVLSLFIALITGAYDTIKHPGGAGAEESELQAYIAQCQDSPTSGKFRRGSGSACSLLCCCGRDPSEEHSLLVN
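TRPML1-DL cells, Tet-induced overnight (~16 h, 37 °C) at 1,500 cells/well, were loaded with Ca8 no-wash dye plus quencher for 45-90 min at room temperature. Compounds were pinned during FDSS kinetic reading; agonist 54-4 at EC80 (4 uM final) then added.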
Sfp PPTase inh – Sfp phosphopantetheinyl transferase inhibition; Q9F4F7; Biochemical Sfp PPTase activity, qHTS; Potency, µM, for inactives: max response, negative = inhibition, hits mostly inhibitors; actives 3.5% (n = 310,000); active means well fitted inhibition curve with a large enough effect; inconclusive means small, poorly fitted or top-dose-only effect, or another doubt; inactive means no such curve, though single readings can be large or run the other way;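 further: the enzyme is Sfp with the accession as filed and its product quenches rhodamine fluorescence; potency means the concentration at half of the fitted maximal effect; 0% = enzyme reaction without inhibitor and -100% = no enzyme wells; top concentration of the series not given in the record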
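Sfp 15 nM + cpd, 15 min RT; start w/ rhodamine-CoA 5 uM, BHQ-2-YbbR 12.5 uM (final); 50 mM Hepes pH 7.6, 10 mM MgCl2, 0.01% NP-40, 0.01% BSA; read 525/598 nm at 0 and 30 min.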
gsp antagonist – gsp mutant antagonism. gsp-mutant cells, cAMP HTRF, 30 min; control for the full effect not named in the record. Potency, µM (highest dose often 76.9 µM), without a hit: top-dose activity change, negative = inhibition, most hits filed as inhibitors. actives 0.4% (n = 340,000); active = falling curve of any shape with a large fitted effect; inconclusive = falling curve, mostly with a smaller effect; inactive = flat or rising curve; cell line not stated here;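 further: intracellular cAMP measured with PDE inhibitor Ro 20-1724 present during compound exposure; potency means the concentration at half of the fitted maximal effect; on the % scale 0 is the no-effect control and ±100 the full control effect; nearly all actives have a fitted effect of over 65% in size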
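Measurement of cellular cAMP by homogeneous time-resolved fluorescence following a 30 min compound exposure at 37C. The PDE inhibitor […] was present throughout; the assay buffer was DPBS with 0.05% BSA and 0.005% Tween 20.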
TRPV1 PAM – human TRPV1 potentiation; Q8NER1; TRPV1-expressing cells, Fluo-8 calcium influx, capsaicin EC20 potentiation; host cell line not named in the record; control for the full effect not named in the record; potentiation, % at 8.33 µM; actives 0.02% (n = 320,000); active means potentiation above 80%; inconclusive means 30% to 80%; inactive means below 30%; further: 0% is about no effect
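Cells expressing TRPV1 were dye-loaded with Fluo-8 and read kinetically: 10 s baseline, 3 min after compound (agonist portion), then 2 min after EC20 capsaicin (allosteric enhancer portion). Calcium-bound dye fluorescence at 480/520 nm.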
ClpP mod – qHTS Assay for Activators of ClpP | AID 651965, 2013 | Potency, µM (top dose mostly 57.5 µM), for the others: at the top dose activity change, negative = active | actives 1.9% (n = 340,000) | ATP-dependent Clp protease proteolytic subunit (Bacillus subtilis (strain 168)), P80244 | purified B. subtilis ClpP, FRET peptide cleavage, 20 min; active = well fitted falling curve with a large enough effect; inconclusive = small, poorly fitted or top-dose-only effect; inactive = no such curve, though single readings can be large or run the other way; further: potency means the concentration at half of the fitted maximal effect; the source files actives as falling curves though it sought activators and does not explain the sign; nearly all actives have a fitted effect of over 65% in size; many hits overshoot -100%
Target sequence (P80244 whole entry, looked up): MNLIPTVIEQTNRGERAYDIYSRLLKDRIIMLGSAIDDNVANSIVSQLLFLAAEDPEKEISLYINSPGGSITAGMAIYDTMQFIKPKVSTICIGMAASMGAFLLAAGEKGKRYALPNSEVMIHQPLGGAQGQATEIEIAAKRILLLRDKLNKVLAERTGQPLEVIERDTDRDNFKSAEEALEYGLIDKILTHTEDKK
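ClpP 10 microg/mL final, pH 8 Tris/KCl buffer with BSA, glycerol, Tween-20; compound pinned in; FRET-FV substrate; RT 20 min; Ex320/Em430; ΔFRET vs ADEP 5.8 microM, DMSO, no enzyme.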
Starred values were filed as active, the others as inactive; ? = inconclusive; / = no result given; [ ] = remark or other dose. Hits appear at their usual frequency; overall some 4.9% were active at least once.

SMILES	Menin MLL FP FL	gsp ag	TRPML1 inh	Sfp PPTase inh	gsp antagonist	TRPV1 PAM	ClpP mod
O=C(Nc1nnc(C23CC4CC(CC(C4)C2)C3)s1)c1ccc(N2C(=O)CCC2=O)cc1	6.9	33%	-13	15%	5%	18	-1.9%
CCOc1ccc(N(C)S(=O)(=O)c2ccc(C)c(C(=O)OCC(=O)c3c[nH]c4ccccc34)c2)cc1	4.1	-8%[15.4 µM]	7	20%	13%	2	/
CCOC(=O)c1c(NC(=O)CCl)sc(CN(C)C)c1-c1ccccc1	-0.1	1%[15.4 µM]	16	20%	/	3	/
Cc1cc(NS(=O)(=O)c2ccc(NC(=O)C(c3ccccc3)c3ccccc3)cc2)no1	4.6	-18%	-8	11%	-21%	-4	-1.3%
COc1ccc(C2=NN(C(=O)c3ccccc3)C(c3ccc(OC)c(OC)c3)C2)c(O)c1 (centres undefined)	-4.0	-1%[15.4 µM]	16	-10%	2%	1	-3.3%
C[C@]12C=CC(=O)C=C1CCC1C2CC[C@@]2(C)C1CCC21OCCO1 (some centres undefined)	/	1%	3	/	-4%	/	/
NC(=O)COc1ccc(NC(=O)OCc2ccccc2)cc1	3.3	-45%[inhibitor]	-12	0%	3%	/	32µM*
CCN(c1ccccc1)S(=O)(=O)c1ccc(C(=O)Nc2cccc(NC(C)=O)c2)cc1	/	-10%	-17	/	?	/	1.1%
CCCCN1Cc2ccccc2Oc2cc(Br)ccc2S1(=O)=O	/	/	55	/	-2%	/	-4.4%
CCN1C(=O)N[C@@H](c2ccccc2)[C@H](C(C)=O)[C@H]1C	0.6[11.7 µM]	-7%	-4	-3%	2%	/	-2.4%
COCCn1c(SCC(=O)Nc2ccc(OC)c(S(N)(=O)=O)c2)nc2ccccc2c1=O	/	-6%[15.4 µM]	-15	/	6%	/	/
CCOC(=O)N1CCN(S(=O)(=O)c2c[nH]c(C(=O)OC)c2)CC1	6.3	-33%[inhibitor]	11	14%	-17%	-4	0.8%
CC1(C)CC(=O)C(C=NCCN2CCN(C3CC(=O)N(c4ccc(Cl)c(Cl)c4)C3=O)CC2)=C(O)C1 (centres undefined)	-0.8	0%[15.4 µM]	-12	7%	/	-1	/
CC1CN(C(C)C)C(=S)N(c2ccccc2)C1=O (centres undefined)	/	-31%[inhibitor]	-7	/	13%	/	/
CCOc1ccc2c(c1)nc(SCC(=O)c1ccc(Br)s1)n2C	3.7	?	3	32µM*	9%	9	-1.9%
NS(=O)(=O)c1ccc(NC(=O)c2ccc(CSc3ccccc3)o2)cc1	-0.1	-5%[15.4 µM]	1	17%	-4%	-8	1.9%
CCN(CC)CCCNc1nc2cc(OC)c(OC)cc2c2nc(-c3ccccc3)nn12	-2.3	9%	14	-5%	5%	0	32µM*
Cc1ccc(C)c(-n2c(SCC(=O)N3CCC(C(=O)O)CC3)nnc2-c2cccc(Cl)c2)c1	-0.8	1%	3	6%	-6%	2	-0.4%
Cn1nnnc1SCC(=O)Nc1ccc(S(=O)(=O)N2CCOCC2)cc1	1.0	-3%	/	4%	10%	11	0.8%
CCCCNC(=O)COC(=O)c1ccccc1F	4.3	16%[15.4 µM]	4	33%[activator]	8%	11	/
COc1ccc2nc(SCC(=O)Nc3cc(C)on3)[nH]c2c1	1.0	0%	1	9%	-6%	-5	0.9%
CCCCCN(C(=O)CCC(=O)OC(C)C(=O)c1ccccc1)c1c(N)n(CCCC)c(=O)[nH]c1=O (centres undefined)	/	1%	-2	/	-3%	-7	-1.4%
Cn1c(CSc2ncccn2)nnc1SCC(=O)N1CCCc2ccccc21	-0.3	13%	6	-4%	-2%	-4	-0.9%
COc1ccc2c(c1OC)C(=O)OC2Nc1nc(-c2cc3cc(Br)ccc3oc2=O)cs1 (centres undefined)	2.8	5%[15.4 µM]	2	-10%	1%	2	/
COC(=O)c1ccc(COC(=O)C(CCSC)NC(=O)COc2ccccc2)cc1 (centres undefined)	/	0%	-3	12%	-30%	9	-1.1%
COCCCNC(=O)CC1C[C@H](C(=O)N2CCCCC2)[C@@]2(C)c3[nH]c4ccccc4c3CCN2C1=O (some centres undefined)	/	/	6	/	0%	/	-2.1%
COc1cc(-c2ccc3oc(-c4cccc(C)c4)c(C#CC4(O)CCCCC4)c3c2)cc(OC)c1OC	/	/	47	/	-4%	/	4.2%
N#Cc1ccc(NCC(=O)N2CCN(S(=O)(=O)c3ccccc3)CC2)cc1	/	-13%	3	/	-28%	-8	0.2%
CCn1c(C)nc2cc(C(=O)NNS(=O)(=O)c3ccccc3F)ccc21	-0.8	-8%	16	13%	2%	-12	3.2µM*
CC(=O)/C(=N/Nc1ccccc1)Sc1nnc(CCc2ccccc2)n1-c1ccccc1	-0.4	-17%[15.4 µM]	24	-16%	?	-19	/
CN(c1ccccc1)S(=O)(=O)c1ccc(Cl)c(C(=O)NCc2ccccc2CN2CCCC2)c1	/	15%	27	/	8%	14	-3.9%
N#C/C(=N\Nc1ccc(Cl)cc1)C(=N)N1CCCCCC1	-1.0	-17%	15	6%	-4%	-10	-0.3%
COc1ccc(Br)cc1/C=N/NC(=O)c1cc(OC)c(OC)c(OC)c1	1.4	3%	-4	17%	-11%	2	-4.2%
O=C(NCc1ccco1)c1cccc(S(=O)(=O)N2CCc3ccccc32)c1	10	12%	-12	19%	-11%	-6	-2.2%
Cc1nc2cc(-c3ccccc3)nn2c(C)c1CCC(=O)NC(C)c1ccc2c(c1)OCCO2 (centres undefined)	0.3	?	-2	8%	-22%	3	4.1%
CN(C)S(=O)(=O)c1cc(NC(=O)COC(=O)c2ccc3c(c2)OCO3)ccc1Cl	5.0	4%	20	-2%	-15%	0	-10%
COC(=O)C1=C(C(=O)OC)[C@@H]2Nc3ccccc3[C@@]23C[C@@H](C(=O)OC)N(C(=O)c2cccs2)C3=N1	0.1[11.7 µM]	6%	-10	-14%	?	/	-0.6%
Cc1ccc2ncnc(Nc3ccc(C)c(C)c3)c2c1	2.0	5%	10	2%	?	-24	-9.6%
Cc1ccc2c(c1)nnn2C1CCN(CC(=O)NNC(=O)c2ccco2)CC1	-5.8	-8%	3	25%	1%	-4	-1.7%
C=CCOC(=O)C(C#N)c1nc2ccccc2nc1N1CCN(Cc2ccccc2)CC1 (centres undefined)	?	14%	31	-6%	?	-3	-4.5%
COC(C(=O)Nc1ccnn1C1CCN(C(=O)c2cccc(F)c2)CC1)c1ccccc1 (centres undefined)	4.0	2%	2	12%	6%	27	-3.1%
O=C(NCc1ccccn1)C(=O)NCC(c1ccco1)N1CCOCC1 (centres undefined)	1.2	-32%[inhibitor]	/	-1%	-8%	-10	-0.3%
Cc1cccc(C)c1NC(=O)CN1C(=O)C(C)Oc2ccccc21 (centres undefined)	29	-19%[15.4 µM]	-5	15%	-7%	-1	0.2%
CC1=C(C(=O)N2CCCCCC2)C2(CCC(C)CC2)OC1=O (centres undefined)	-1.6	3%	16	18%	0%	-9	-1.1%
COc1ccc(N2CCN(C(=S)Nc3ccc(OC)cc3OC)CC2)cc1	0.9	-30%[inhibitor]	-5	3%	-2%	0	0.3%
O=C(Nc1ccccc1F)c1cc(C(=O)Nc2ccccc2F)cc([N+](=O)[O-])c1	-4.3	3%	-10	9%	-2%	?	0.6%
COc1ccccc1N(CC(=O)NCc1ccco1)S(C)(=O)=O	0.4	-7%[15.4 µM]	-4	11%	0%	-1	/
COc1cc2c(cc1OC)C(C)N(C(=O)c1cc3n(n1)C(C(F)(F)F)CC(c1ccco1)N3)CC2 (centres undefined)	?	5%	-11	40µM*	4%	-7	0.9%
Cc1ccccc1N1C(=O)C2ON(c3ccccc3)C(c3ccncc3)C2C1=O (centres undefined)	2.5	-25%	3	8%	7%	-1	1.7%
Cc1cc(C(=O)O)ccc1N=Cc1c(O)ccc2ccccc12	?	-1%[15.4 µM]	33	-1%	5%	8	0.0%
CCOC(=O)c1c(-c2ccccc2)oc2ccc(OCC(=O)NNC(=O)CCC(=O)O)cc12	-2.4	10%	24	0%	4%	?	3.8%
Cc1ccccc1NC(=O)C1CCN(c2cc(-c3ccccc3)nc3ncnn23)CC1	-1.8	-20%	19	17%	?	-32	-7.2%
CCOC(=O)c1sc2c(c1C)c(=O)c(C(=O)OCC)cn2CC	-0.4	?	4	3%	8%	-3	?
O=C1O/C(=C/c2ccccc2)c2ccccc21	5.1	-10%[15.4 µM]	-14	-10%	-4%	-3	?

Quoted from above, 2 compounds:
SMILES	Menin MLL FP FL	gsp ag	TRPML1 inh	Sfp PPTase inh	gsp antagonist	TRPV1 PAM	ClpP mod
CC1=C(C(=O)N2CCCCCC2)C2(CCC(C)CC2)OC1=O (centres undefined)	-1.6	3%	16	18%	0%	-9	-1.1%
COc1ccc(N2CCN(C(=S)Nc3ccc(OC)cc3OC)CC2)cc1	0.9	-30%[inhibitor]	-5	3%	-2%	0	0.3%

One compound at a time (already shown). Screens in order: Menin MLL FP FL | gsp ag | TRPML1 inh | Sfp PPTase inh | gsp antagonist | TRPV1 PAM | ClpP mod
Record of `CCOC(=O)c1sc2c(c1C)c(=O)c(C(=O)OCC)cn2CC` = -0.4 | ? | 4 | 3% | 8% | -3 | ?
Record of `O=C(NCc1ccccn1)C(=O)NCC(c1ccco1)N1CCOCC1` (centres undefined) = 1.2 | -32%[inhibitor] | / | -1% | -8% | -10 | -0.3%
Record of `Cc1ccccc1NC(=O)C1CCN(c2cc(-c3ccccc3)nc3ncnn23)CC1` = -1.8 | -20% | 19 | 17% | ? | -32 | -7.2%
Record of `CCOC(=O)c1c(-c2ccccc2)oc2ccc(OCC(=O)NNC(=O)CCC(=O)O)cc12` = -2.4 | 10% | 24 | 0% | 4% | ? | 3.8%
Record of `CC1=C(C(=O)N2CCCCCC2)C2(CCC(C)CC2)OC1=O` (centres undefined) = -1.6 | 3% | 16 | 18% | 0% | -9 | -1.1%

Screens as filed in PubChem.
